Bioassay records as filed in PubChem BioAssay.
Marburg entry inh: qHTS for inhibitors of binding or entry into cells for Marburg Virus; Potency, µM (highest dose often 37.8 µM), for inactives: at the top dose activity change, negative = inhibition, most hits filed as inhibitors; AID 540276, 2011; Marburg virus pseudotyped entry inhibition, cell reporter; control for the full effect not named in the record; about a third of the inactives were read at about 46 µM; 300,000 tested, 1.8% active; active = well fitted inhibition curve with a large enough effect; inconclusive = small, poorly fitted or top-dose-only effect, or effect the other way; inactive = flat fitted curve, though single readings scatter; tested in HEK293 cells; about a fifth of its hits are not listed in these tables; further: on the % scale 0 is the no-effect control and ±100 the full control effect; luciferase read-out
SARS PLP yeast: qHTS of Yeast-based Assay for SARS-CoV PLP. S. cerevisiae expressing SARS-CoV PLpro, growth rescue; control for the full effect not named in the record. Potency, µM (titrated, usually from 32.9 µM), inactives show at the highest dose activity, positive = growth rescue. 330,000 tested, 0.19% active. AID 485353, 2010; active means well fitted rising curve with a large enough effect; inconclusive means small, poorly fitted or top-dose-only effect; inactive means no such curve, though single readings can be large or run the other way; further: 0% is about no effect; nearly all actives have a fitted effect of over 55% in size; growth read by luminescence after 48 h
Cruzain noTriton: qHTS Assay for Promiscuous and Specific Inhibitors of Cruzain (without detergent) | AID 1476, 2009 | Potency, µM, inactives show max response, negative = inhibition, hits mostly inhibitors | purified cruzain, Z-FR-AMC fluorescence, no detergent | 200,000 tested, 2.3% active | Cruzipain (Trypanosoma cruzi), P25779;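 further: plate controls were enzyme without inhibitor for no effect and buffer without enzyme for full effect; nearly all actives have a fitted effect of over 40% in size; top concentration of the series not given in the record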
Target sequence (P25779 123-467 limits assumed): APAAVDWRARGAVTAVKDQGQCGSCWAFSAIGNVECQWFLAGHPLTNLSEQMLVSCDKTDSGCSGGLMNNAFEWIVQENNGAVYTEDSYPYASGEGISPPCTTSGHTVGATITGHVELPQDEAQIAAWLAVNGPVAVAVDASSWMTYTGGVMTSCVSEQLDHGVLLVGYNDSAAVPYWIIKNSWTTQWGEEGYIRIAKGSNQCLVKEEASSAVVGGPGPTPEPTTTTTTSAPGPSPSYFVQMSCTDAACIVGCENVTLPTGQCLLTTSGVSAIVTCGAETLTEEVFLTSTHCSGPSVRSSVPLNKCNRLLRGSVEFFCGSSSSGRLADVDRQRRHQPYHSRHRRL
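Detergent-free condition (0.00005% Triton X-100) in acetate buffer pH 5.5 with DTT. 1.5 nM enzyme and compound were pre-mixed 15 min, then 2 uM Z-FR-AMC substrate added; reaction progress from fluorescence change between first and third reads (60 s).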
2A StopGo: High Throughput Screening for Foot and Mouth Disease Virus Antivirals; human cells with a luciferase reporter of 2A StopGo recoding; control for the full effect not named in the record; Potency, µM (doses to about 57.9 µM), without a hit: at the highest dose signal change, negative = less light; 410,000 tested, 1.2% active; active = well fitted falling curve with a large enough effect; inconclusive = small, poorly fitted or top-dose-only effect; inactive = no such curve, though single readings can be large or run the other way; tested in HEK293T cells; further: on the % scale 0 is the no-effect control and ±100 the full control effect; nearly all actives have a fitted effect of over 45% in size; luciferase light after 4 h
NS1 inh: qHTS Assay for Inhibitors of Influenza NS1 Protein Function; S. cerevisiae slowed by influenza A NS1, growth recovery by OD600; Potency, µM (top dose mostly 46.1 µM), inactives show at the top dose activity, positive = more growth; 270,000 tested, 0.4% active; AID 2326, 2010; active means well fitted rising curve with a large enough effect; inconclusive means small, poorly fitted or top-dose-only effect; inactive means no such curve, though single readings can be large or run the other way; further: nearly all actives have a fitted effect of over 50% in size
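S. cerevisiae expressing influenza A NS1, grown in glucose, washed, then diluted 1:100 into pH 6.0 -URA galactose medium with 23 nl compound. Growth recovery read as OD600; NS1-free strain serves as control.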
Lassa entry inh: qHTS for Inhibitors of binding or entry into cells for Lassa Virus | 300,000 tested, 1.2% active | Lassa virus pseudotype entry inhibition, cell reporter; control for the full effect not named in the record | Potency, µM (highest dose often 37.9 µM), without a hit: at the top dose activity change, negative = inhibition, hits mostly inhibitors; active means well fitted inhibition curve with a large enough effect; inconclusive means small, poorly fitted or top-dose-only effect, or effect the other way; inactive means flat fitted curve, though single readings scatter; tested in HEK293 cells; further: on the % scale 0 is the no-effect control and ±100 the full control effect; nearly all actives have a fitted effect of over 50% in size; luciferase read-out
Cruzain Triton: qHTS Assay for Promiscuous and Specific Inhibitors of Cruzain (with detergent); purified cruzain, Z-FR-AMC fluorescence, 0.01% Triton; 200,000 tested, 0.43% active; Cruzipain (Trypanosoma cruzi), P25779; Potency, µM, for the others: max response, negative = inhibition, usual class: inhibitors;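 further: plate controls were neutral wells for no effect and buffer without enzyme for full effect; nearly all actives have a fitted effect of over 40% in size; top concentration of the series not given in the record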
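Detergent-containing run (0.01% Triton X-100) in acetate buffer pH 5.5 with 5 mM DTT: enzyme at 1.5 nM final, 15 min compound preincubation at room temperature, then 2 uM Z-FR-AMC substrate. Activity taken as 60 s fluorescence increase at 360/450 nm.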
RE007 growth inh: qHTS Assay for Inhibitors of the HIV-1 protein Vpr. 360,000 tested, 0.21% active. S. pombe RE007 Vpr strain, BacTiter-Glo ATP luminescence, 24 h; control for the full effect not named in the record. Potency, µM (series often up to 92.2 µM), without a hit: at the highest dose activity change, negative = less growth; active = well fitted falling curve with a large enough effect; inconclusive = small, poorly fitted or top-dose-only effect; inactive = no such curve, though single readings can be large or run the other way;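 further: on the % scale 0 is the no-effect control and ±100 the full control effect; nearly all actives have a fitted effect of over 50% in size; the assay follows cell death caused by Vpr and the record does not say whether a fall means rescue or toxicity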
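Fission yeast strain RE007, carrying one chromosomally integrated HIV-1 vpr copy, was seeded at OD 0.01 in PMG+AL medium with 23 nL pinned compound. After 24 h at 30 °C and 99% humidity, viability was read by BacTiter-Glo luminescence.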
Active calls of the source: *; ? = inconclusive; . = no result given; & = joins results of further samples; [ ] = another dose, or the depositor's remark. Unless noted, the call rests on the fitted dose curve; in most records, active means well fitted curve in the direction sought with a large enough effect; inconclusive means small, poorly fitted or top-dose-only effect, or another doubt; inactive means no such curve, though single readings can be large; an effect the other way counts as inactive or inconclusive. Potency means the concentration at half of the fitted maximal effect. Rows are unselected; 4.7% or so of the library scored in one or more.

SMILES	Marburg entry inh	SARS PLP yeast	Cruzain noTriton	2A StopGo	NS1 inh	Lassa entry inh	Cruzain Triton	RE007 growth inh
Cc1csc(NC(=O)CSc2nnc(-c3ccoc3C)n2CCc2ccccc2)n1	-17%	1%	7%	-17%	-3%	7%	-2.2%	-10%
Cc1ccc(OCCC(=O)OCC(=O)C(C)(C)C)cc1	16%	4%	1%	-13%	-1%	13%	-3.3%	-17%
C/C(O)=C/c1nc2ccccc2[nH]c1=O	?	23%	2%	-6%	12%	-7%	-7.6%	18%
COC(=O)/C(C(C)=O)=C(\C=C\N(C)C)N(C)C	15%	6%	-8%	.	9%	7%	-7.8%	4%
COc1ccc(C(=O)NN/C(C)=C/C(=O)C(F)(F)C(F)(F)C(F)(F)F)cc1	?	-16%	9%	-18%	-59%	-7%	-6.5%	28%
Cc1ccccc1C(=O)c1cccn1CC(=O)NC(C)c1ccccc1 (stereo not given)	-2%[46.1 µM]	-2%	.	-7%	-23%	?	.	-6%
C=CCn1c(O)c(C(CC)=Nc2ccc(NC(C)=O)cc2)c(=O)[nH]c1=O	-20%	1%	.	?	3%	-10%	.	-17%
O=C(Cn1cnc2c(nnn2-c2ccc(F)cc2)c1=O)NCC1CCCO1 (stereo not given)	?	-9%	-21%	-20%	-1%	2%	1.7%	3%
O=C(COC(=O)c1cccc(C(=O)OCC(=O)NC2CC2)n1)NC1CC1	-3%[46.1 µM]	-4%	.	-5%	.	.	.	20%
Cc1ccc(S(=O)(=O)NNC(=O)C2COc3ccccc3O2)cc1C (stereo not given)	.	-1%	.	0%	3%	.	.	14%

By substructure, those above containing fluorine (2)
SMILES	Marburg entry inh	SARS PLP yeast	Cruzain noTriton	2A StopGo	NS1 inh	Lassa entry inh	Cruzain Triton	RE007 growth inh
COc1ccc(C(=O)NN/C(C)=C/C(=O)C(F)(F)C(F)(F)C(F)(F)F)cc1	?	-16%	9%	-18%	-59%	-7%	-6.5%	28%
O=C(Cn1cnc2c(nnn2-c2ccc(F)cc2)c1=O)NCC1CCCO1 (stereo not given)	?	-9%	-21%	-20%	-1%	2%	1.7%	3%

Following part:
SMILES	Marburg entry inh	SARS PLP yeast	Cruzain noTriton	2A StopGo	NS1 inh	Lassa entry inh	Cruzain Triton	RE007 growth inh
Cc1ccccc1C(=O)NC1CCN(C(=O)NCc2ccccc2)CC1	1%[46.1 µM]	-1%	.	-2%	5%	?	.	1%
CCN(C(=O)CSc1nnnn1C)C1CCS(=O)(=O)C1 (stereo not given)	?	-2%	.	-13%	.	1%	.	8%
Cc1ccc(C2NC(=NCc3ccccc3)Nc3nc(C)cc(=O)n32)cc1 (stereo not given)	3%[46.1 µM]	0%	.	-4%	6%	-5%	.	2%
Cc1sc(NC(=O)CN(Cc2ccccc2)C(=O)C(C)C)c(C(N)=O)c1C	-11%	7%	4%	-7%	11%	?	-1.0%	-3%
Cc1ccc(S(=O)(=O)n2nc(OC(=O)c3c(F)cccc3Cl)cc2N)cc1	2%[46.1 µM]	-3%	.	-11%	-6%	2%	.	-14%
CCN(CC(=O)Nc1ccc(OC)cc1)C(=O)c1ccc(Cl)c(S(=O)(=O)N2CCCC2)c1	2%	0%	.	-27%	.	-6%	.	0%
CCN(CC)CCCn1c(=S)[nH]c2cc(C(=O)OC)ccc2c1=O	-16%	9%	-5%	0%	-4%	0%	3.5%	-17%
O=C(Cc1cccs1)Nc1ccc(Cl)c(S(=O)(=O)N2CCOCC2)c1	?	1%	.	-17%	.	?	.	9%
COc1ccc(/C=N/NS(=O)(=O)c2ccc(NC(C)=O)cc2)cc1	18%[46.1 µM]	0%	.	82%[activator]	4%	-14%	.	20%
Clc1ccc(-n2nnnc2-c2cnc(-c3ccccn3)nc2-c2cccs2)cc1	?	?	0%	?	1%	?	-4.0%	5%
CN(Cc1ccccc1)Cc1c(O)ccc2c(=O)c(-c3ccccc3)c(C(F)(F)F)oc12	-23%[46.1 µM]	.	-3%	15%	.	0%[46.1 µM]	-2.7%	.
CN(C)Cc1c(C(=O)N/N=C/C2CC=CCC2)nnn1-c1nonc1N (stereo not given)	16%[46.1 µM]	1%	.	7%	1%	0%[46.1 µM]	.	-5%
Cc1ccc(C)c(CN2CCCN(Cc3cc(C)ccc3C)S2(=O)=O)c1	?	0%	0%	-9%&-12%	-5%	?	-0.2%	17%
Cc1sc2nc(C)n(/N=C/N(C)C)c(=O)c2c1C	-1%	0%	.	7%	2%	18%	.	3%
COc1ccc(-n2c(=O)[nH]cc(C(=O)N3CCCc4ccccc43)c2=O)cc1	-6%[46.1 µM]	1%	5%	-5%	-6%	2%	3.5%	1%
Cc1c(C)n(Cc2ccccc2)c2ccc(C(=O)NCCN3CCOCC3)cc12	.	26%	.	-17%	15%	.	.	-5%
COc1ccccc1/C=C(/CC(=O)NCc1ccccc1)c1nc2ccccc2s1	-3%	17%	?	-7%	8%	-4%	-4.3%	-16%
Cc1ccccc1C(=O)NNC(=O)c1ccoc1C	16%	?	-2%	52%[activator]	5%	39%	-0.1%	0%
CSCC[C@H](NC(=O)N1CCn2c1nc1ccccc12)C(=O)NCc1ccco1	.	8%	.	5%	-5%	.	.	2%
COc1ccc(CNC(=O)C(C)OC(=O)CCN2C(=O)C3CC=CCC3C2=O)cc1 (stereo not given)	?	-3%	.	-14%	.	1%[46.1 µM]	.	-20%

By substructure: the entries above with a halogen
SMILES	Marburg entry inh	SARS PLP yeast	Cruzain noTriton	2A StopGo	NS1 inh	Lassa entry inh	Cruzain Triton	RE007 growth inh
COc1ccc(C(=O)NN/C(C)=C/C(=O)C(F)(F)C(F)(F)C(F)(F)F)cc1	?	-16%	9%	-18%	-59%	-7%	-6.5%	28%
O=C(Cn1cnc2c(nnn2-c2ccc(F)cc2)c1=O)NCC1CCCO1 (stereo not given)	?	-9%	-21%	-20%	-1%	2%	1.7%	3%
Cc1ccc(S(=O)(=O)n2nc(OC(=O)c3c(F)cccc3Cl)cc2N)cc1	2%[46.1 µM]	-3%	.	-11%	-6%	2%	.	-14%
CCN(CC(=O)Nc1ccc(OC)cc1)C(=O)c1ccc(Cl)c(S(=O)(=O)N2CCCC2)c1	2%	0%	.	-27%	.	-6%	.	0%
O=C(Cc1cccs1)Nc1ccc(Cl)c(S(=O)(=O)N2CCOCC2)c1	?	1%	.	-17%	.	?	.	9%
Clc1ccc(-n2nnnc2-c2cnc(-c3ccccn3)nc2-c2cccs2)cc1	?	?	0%	?	1%	?	-4.0%	5%
CN(Cc1ccccc1)Cc1c(O)ccc2c(=O)c(-c3ccccc3)c(C(F)(F)F)oc12	-23%[46.1 µM]	.	-3%	15%	.	0%[46.1 µM]	-2.7%	.
